# Screening results from PubChem.
# E coli growth: E. coli growth inhibition; Escherichia coli growth, OD600, 23 h; stronger effect = lower value; AID 1053175; 330,000 tested, 0.21% active; OD600 absorbance (no concentration beside the values);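 active means OD600 absorbance below the run mean of sample wells minus 3.6 SD, in any replicate, cut at about 0.56 in these data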;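 further: stock transfer was 300 nL into about 60 µL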
# T cruzi inh: blocks replication of Trypanosoma cruzi; 300,000 tested, 1.4% active; AID 1885; T. cruzi beta-gal in NIH3T3, luminescence, 90 h; inhibition, % (test concentration not listed);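 active means mean inhibition across valid replicates above about 55%, limit read from the data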;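 further: signal also drops with host cell toxicity which is not excluded here; 0% = plate median of DMSO wells and 100% = zero luminescence signal; higher percent means less beta-gal luminescence so fewer parasites; stock transfer was 50 nL into about 50 µL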
# Beta apoptosis: beta cell apoptosis inhibition; 300,000 tested, 0.8% active; INS-1E cytokine-induced death, ATP luminescence, 48 h; percent of positive-control rescue, neutral wells zero; protection from apoptosis, % (concentration not given with the values);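 active means all replicates at 75% or more, or half of them and the mean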;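 further: 0% = cytokine-treated negative control wells and 100% = positive control rescue; higher means more ATP so stronger rescue from cytokine killing; wells of about 40 µL received 100 nL stock; the first replicate is given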
# Bfl-1 A1 inh: inhibitors of the anti-apoptotic protein A1, read as caspase activation; MEF A1-2A-BIM cells, Caspase-Glo 3/7 luminescence, 3 h; percent of clofoctol response, vehicle zero; 330,000 tested, 0.066% active; caspase activation, % (concentration not given with the values);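 active means over half of replicate activation scores above 10%, or exactly half above 10 with the replicate mean above 10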;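 further: wells of about 30 µL received 50 nL stock; many hits fall short of the cut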
# MLL AF4-AF9 inh: MLL-AF4/AF9 protein interaction inhibition; P42568; AlphaScreen, biotin-AF4 peptide binding to FLAG-AF9; inhibition, % at 10 µM; 350,000 tested, 0.47% active;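 active means every replicate reaching a set inhibition limit, whatever the replicate mean, cut at about 25% in these data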;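 further: 0% = plate neutral control median and 100% = total signal loss; the record names both 10 and 1 µM as test concentration; the first replicate is given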
# rRNA inh HTS: inhibitors of bacterial rRNA selective over humanized ribosomes; E. coli WT GFP vs humanized-ribosome RFP mutants, fluorescence, 24 h; stronger effect = lower value; DMSO median 0, no signal -100; GFP signal change (wild-type ribosome), % (test concentration not listed); 350,000 tested, 1.6% active; AID 720706;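 active means significant combined selectivity score with lowered wild-type GFP, culture density cut under 30%, mutant RFP and density less affected; inactive means any of these conditions unmet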; further: one replicate is shown; some compounds called inactive have numbers as strong as hits
# UCH37 inh: inhibitors of human deubiquitinating enzyme UCH37 | Q9Y5K5 | purified proteasome/UCH37, Ub-AMC cleavage fluorescence | inhibition, % (concentration not given with the values) | 330,000 tested, 0.33% active;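 active means mean of two replicates above 20%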;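 further: 0% = compound-free wells with enzyme and 100% = wells lacking proteasome; stock transfer was 100 nL into about 20 µL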
# Target sequence (Q9Y5K5 whole entry, looked up): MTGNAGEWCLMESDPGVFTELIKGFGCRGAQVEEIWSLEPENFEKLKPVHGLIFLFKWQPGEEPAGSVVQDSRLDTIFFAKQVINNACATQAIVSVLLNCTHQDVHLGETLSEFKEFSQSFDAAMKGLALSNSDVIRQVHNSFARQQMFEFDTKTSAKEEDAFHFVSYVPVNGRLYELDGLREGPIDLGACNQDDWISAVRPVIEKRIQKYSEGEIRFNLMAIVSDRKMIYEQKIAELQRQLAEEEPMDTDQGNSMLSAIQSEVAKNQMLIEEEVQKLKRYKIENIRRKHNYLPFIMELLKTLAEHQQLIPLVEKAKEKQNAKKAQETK
#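 Assay system: Proteasome-bound UCH37. Buffer or medium: pH 7.4 Tris-HCl (50 mM) with ovalbumin, ATP-MgCl2, DTT. Incubation: 30 min preincubation with enzyme, 25 min cleavage at room temperature. Measured by: fluorescence, ex 355 nm, em 460 nm. Read-out basis: percent inhibition. Control set: wells without proteasome as full block, compound-free enzyme plus substrate as uninhibited.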
# FGF22 binding: shifts melting point of recombinant human FGF22. Q9HCT0. recombinant FGF22 thermal shift, SYPRO orange fluorescence; percent of sucrose octasulfate shift, DMSO zero. calls only at 9.99 µM. 340,000 tested, 1.5% active. AID 651658;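 active means melting point raised past a set limit in the mean and every replicate; three in four hits are not shown here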
# Target sequence (Q9HCT0 whole entry, looked up): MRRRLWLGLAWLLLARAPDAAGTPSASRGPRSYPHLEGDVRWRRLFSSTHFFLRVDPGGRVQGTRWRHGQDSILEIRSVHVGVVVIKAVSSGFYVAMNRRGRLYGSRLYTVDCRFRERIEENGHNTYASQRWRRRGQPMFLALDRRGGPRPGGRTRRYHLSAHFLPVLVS
# rRNA inh HTS OD600: recorded beside rRNA inh HTS, whose call it bears; OD600 change, %; measured here: OD600 growth;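 optical density of the mix in the first replicate; 0 = DMSO median and -100 = no signal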
# rRNA inh HTS RFP: second read-out of rRNA inh HTS, no call of its own (marks repeat the call); RFP signal change, %; measured here: RFP humanized mutant strains;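 first replicate; 0 = DMSO median and -100 = no signal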
# Active calls of the source: *; i = inactive; nt = no result given; & = joins results of further samples. These rows are one share of the data (hit frequency here may not be typical).
SMILES,E coli growth,T cruzi inh,Beta apoptosis,Bfl-1 A1 inh,MLL AF4-AF9 inh,rRNA inh HTS,rRNA inh HTS OD600,rRNA inh HTS RFP,UCH37 inh,FGF22 binding
COc1ccc(-c2ccc(SCC(=O)N3CCN(c4ccccc4)CC3)nn2)cc1,0.73,-12,-2,-0.2,0.7,0,13,-0.2,-0.2,i
O=C(c1ccccc1Br)N1CCN(c2ccccn2)CC1,0.63,-12,0,0.0,-0.2,3,9,-0.5,-0.8,i
COc1ccc(-n2c(CNC(=O)COc3ccccc3)n[nH]c2=S)cc1,0.74,-12,-4,-0.1,-8.8,6,6,0.8,-2.8,i
COc1ccc(CN(C2CCCC2)S(=O)(=O)c2ccc(-n3cnnn3)cc2)cc1OC,0.69,-14,2,-0.4,nt,nt,nt,nt,1.1,nt
Cc1cc(C)n(CC(=O)NC2CCCCC2)n1,0.73,4,-10,2.4,nt,nt,nt,nt,3.7,nt
Cc1cc(CN(C)C(=O)CC2C(=O)NCCN2Cc2c(F)cccc2Cl)on1 (stereo not given),0.68,3,4,0.3,-10,5,3,-3.7,3.8,i
FC(F)(F)c1nnc(-c2ccccc2)nc1N1CCOCC1,0.68,-10,-1,-0.7,nt,nt,nt,nt,2.7,nt
O=C(OCn1nnc2ccccc2c1=O)c1ccc2c(=O)n3c(nc2c1)CCC3,0.71,-3,-3,-0.3,nt,nt,nt,nt,0.4,nt
CCC(C)[C@H](NC(=O)Nc1ccc2c(c1)OCCO2)C(=O)O (stereo not given in full),0.71,-3,-1,0.1,nt,nt,nt,nt,3.1,nt
Cc1cc(C(=O)OCC(=O)Nc2cccc(S(=O)(=O)N(C)C)c2)c(C)o1,0.69,2,-3,0.5,2.2,-8,-4,2.9,2.0,i
CCOC(=O)Cc1csc(NC(=O)/C=C/c2ccccc2Cl)n1,0.71,1,-1,-0.9,-0.3,0,-5,-1.3,1.6,i
O=C(O)CC1=C(O)C(=O)N(c2ccccc2)C1c1ccc(Cl)cc1 (stereo not given),0.7,-26,-7,0.3,nt,nt,nt,nt,-0.3,nt
O=C(NCCC1=CCCCC1)c1cnc2n(c1=O)CCS2,0.69,3,0,0.3,nt,nt,nt,nt,6.7,nt
Cc1[nH]nc(SCC(=O)Nc2cccc(O)c2)c1[N+](=O)[O-],0.6,-3,-7,0.4,1.1,-17,-18,-1.8,6.2,nt
Cc1cc([N+](=O)[O-])ccc1NC(=O)Nc1ccccc1F,0.68,1,24,0.0,0.5,6,9,-1.6,2.1,i
C[C@H](CO)N1C[C@H](C)[C@@H](CN(C)S(=O)(=O)c2cn(C)cn2)Oc2c(NS(=O)(=O)c3ccc(F)cc3)cccc2C1=O,nt,nt,-14,0.1,-0.2&3.8,3&4,10&10,0.5&1.3,0.4,i
COC(=O)c1ccccc1S(=O)(=O)Nc1ccc2cn[nH]c2c1,0.72,-11,-5,0.1,nt,nt,nt,nt,0.6,nt
COc1ccccc1N(C)S(=O)(=O)c1ccc(C(=O)Nc2ncc(C)s2)cc1,0.71,nt,-9,-0.7,-0.8,26,15,3.7,1.7,i
Cc1ccccc1NC(=O)Cn1cnc2c1c(=O)n(C)c(=O)n2C,0.69,-14,-1,-0.1,nt,nt,nt,nt,-0.4,nt
COc1ccccc1OCC(=O)Nc1cc(Cl)ccc1Oc1ccccc1,nt,20,3,0.7,-0.6,1,7,-10,2.8,i
Cc1cccc(N2CC(C(=O)OCc3ccc([N+](=O)[O-])cc3)CC2=O)c1 (stereo not given),0.72,-2,-16,0.3,-0.4,-5,2,-1.8,5.6,i
Cc1ccc(C)c(OCC(=O)Nc2ccc(S(=O)(=O)Nc3ccccn3)cc2)c1,0.71,0,-1,0.0,-2.8,-8,-8,-0.8,-1.4,i
COc1ccccc1C(=O)COC(=O)/C=C/c1ccccc1,0.68,-2,-3,-2.8,-1.5,2,-5,-0.7,1.0,i
CCOC(=O)C1CCCN(CC(=O)/C=C2/N(C)c3ccccc3C2(C)C)C1 (stereo not given),0.77,15,31,0.2,nt,nt,nt,nt,-6.3,nt
O=C(NCc1ccc(F)cc1)N1CCN(C(=O)c2ccccc2)CC1,0.67,nt,nt,nt,-1.0,nt,nt,nt,1.1,i
# (continued)
SMILES,E coli growth,T cruzi inh,Beta apoptosis,Bfl-1 A1 inh,MLL AF4-AF9 inh,rRNA inh HTS,rRNA inh HTS OD600,rRNA inh HTS RFP,UCH37 inh,FGF22 binding
CCOC(=O)c1ccc(NC(=O)N2CCN(CCc3ccccc3)CC2)cc1,0.62,12,0,1.0,nt,nt,nt,nt,0.7,nt
CC(C)OC(=O)C1Cc2ccccc2CN1S(=O)(=O)c1cccs1 (stereo not given),0.66,5,-2,-0.8,1.3,nt,nt,nt,3.6,i
O=C(CCCO)NNc1c2ccccc2nc2ccccc12,0.69,9,3,0.1,0.4,5,-2,-3.0,-1.3,i
COC(=O)c1c(O)c2c([nH]c1=O)CCCC2,0.74,-6,-2,0.2,nt,nt,nt,nt,-0.6,nt
CC(C)CCOC(=O)/C(=C/c1ccco1)NC(=O)/C=C/c1ccccc1,0.71,22,5,0.2,nt,nt,nt,nt,2.1,nt
CC(C)c1ccc(C(=O)OC2CCOC2=O)cc1 (stereo not given),0.69,nt,-6,0.5,1.2,0,7,-3.4,-1.8,i
Cc1ccc(N=C2NC(=O)C(CC(=O)O)S2)cc1 (stereo not given),0.64,0,-2,-0.6,-68,24,28,-6.0,2.6,i
CN(C)C(=O)c1ccc(NC(=O)COC(=O)Cn2cc(C(F)(F)F)ccc2=O)cc1,0.65,nt,-7,-1.0,-3.2,4,3,-4.0,1.3,i
COc1ccccc1-n1cnnc1SC(C)C(=O)NCC1CCCO1 (stereo not given),nt,nt,-3,-0.2,-1.1,19,21,-0.5,nt,i
COc1ccc(C(=O)OC(C)C(=O)Nc2cc(C(F)(F)F)ccc2Cl)c(OC)c1OC (stereo not given),0.73,-5,nt,0.7,nt,nt,nt,nt,4.1,nt
O=C(CNC(=O)c1cccs1)N/N=C/c1ccc(Cl)cc1,nt,-6,-3,0.4,0.2,6,2,-1.2,nt,i
c1ccc(Nc2ncnc3c2oc2ccccc23)cc1,0.77,-10,6,0.3,nt,nt,nt,nt,-16,nt
Cc1cccc(NC(=O)[C@H](NC(=O)[C@@H]2Cc3ccccc3CN2)c2ccccc2)c1,0.69,27,-7,0.4,-0.2,5,-8,5.5,2.3,i
O=C(NCc1ccccc1)C12CN(Cc3ccccc3)CC1C(c1ccc([N+](=O)[O-])cc1)=NO2 (stereo not given),0.76,22,2,0.2,4.6,10,9,0.7,-0.4,i
CCCCOCCCN1CC(=O)N2[C@@H](Cc3c([nH]c4ccccc34)C2(C)C)C1=O,0.68,-3,8,0.0,-1.3,-8,0,-0.8,-2.6,i
Cc1c(C(=O)N2CCN(S(=O)(=O)c3cc(F)ccc3F)CC2)oc2ccccc12,0.65,nt,2,-1.2,-5.8,-18,-17,0.5,0.3,i
CCN(CC)CCN(C(=O)c1cc(Cl)sc1Cl)c1nc2cc3c(cc2s1)OCO3,0.68,34,-1,1.3,5.4,4,-1,-0.7,1.5,i
Cc1cc(C(=O)Nc2ccccc2N2CCOCC2)ccc1[N+](=O)[O-],0.7,19,4,0.2,nt,nt,nt,nt,4.9,nt
Cc1nn(C(C)(C)C)c(NC(=O)c2ccccc2)c1C#N,0.67,6,-5,0.0,-1.7,10,10,-0.7,-2.2,i
CCc1ccc(S(=O)(=O)ON2C(=O)c3ccccc3C2=O)cc1,0.64,15,nt,nt,-1.5,17,15,-0.2,-5.4,i
Cc1nn(C)c(C)c1CN(Cc1nc(-c2cc(F)ccc2F)oc1C)C1CC1,0.67,3,7,0.1,2.9,-23,-20,-0.6,4.6,i
CCC(CC)NC(=O)CC(c1ccccc1)c1ccccc1,0.74,-3,4,1.1,-3.0,4,2,0.9,1.4,i
CC(C)(C)[C@H]1CCC(=O)N([C@H](CSc2ccccc2)Cc2ccccc2)CC1,nt,43,6,1.1,-29,26,10,6.0,3.5,i
Cc1cc(C)c(NC(=O)CNC(=O)c2ccc3ncsc3c2)c(C)c1,0.73,nt,0,-0.4,-21,2,15,-0.4,2.8,i
Cc1ccccc1NC(=O)NC1(C(=O)N2CCC(O)CC2)CCCCC1,0.71,-5,1,0.1,-3.8,4,6,-2.8,5.0,i
Cc1ccc(S(=O)(=O)N(C)C)cc1NC(=S)Nc1cccc2ccccc12,nt,21,5,0.2,3.8,-1,-9,3.2,nt,i
O=C(CCOc1ccccc1)Nc1ccnn1C1CCN(CCc2ccccc2)CC1,0.68,18,-2,-0.5,1.3,0,3,-1.4,3.3,nt

# No new results follow: entries from further up.
SMILES,E coli growth,T cruzi inh,Beta apoptosis,Bfl-1 A1 inh,MLL AF4-AF9 inh,rRNA inh HTS,rRNA inh HTS OD600,rRNA inh HTS RFP,UCH37 inh,FGF22 binding
CCOC(=O)c1ccc(NC(=O)N2CCN(CCc3ccccc3)CC2)cc1,0.62,12,0,1.0,nt,nt,nt,nt,0.7,nt
CC(C)OC(=O)C1Cc2ccccc2CN1S(=O)(=O)c1cccs1 (stereo not given),0.66,5,-2,-0.8,1.3,nt,nt,nt,3.6,i
O=C(CCCO)NNc1c2ccccc2nc2ccccc12,0.69,9,3,0.1,0.4,5,-2,-3.0,-1.3,i
COC(=O)c1c(O)c2c([nH]c1=O)CCCC2,0.74,-6,-2,0.2,nt,nt,nt,nt,-0.6,nt
CC(C)CCOC(=O)/C(=C/c1ccco1)NC(=O)/C=C/c1ccccc1,0.71,22,5,0.2,nt,nt,nt,nt,2.1,nt
CC(C)c1ccc(C(=O)OC2CCOC2=O)cc1 (stereo not given),0.69,nt,-6,0.5,1.2,0,7,-3.4,-1.8,i

# Reprinted at random: 4 compounds from above
SMILES,E coli growth,T cruzi inh,Beta apoptosis,Bfl-1 A1 inh,MLL AF4-AF9 inh,rRNA inh HTS,rRNA inh HTS OD600,rRNA inh HTS RFP,UCH37 inh,FGF22 binding
Cc1nn(C)c(C)c1CN(Cc1nc(-c2cc(F)ccc2F)oc1C)C1CC1,0.67,3,7,0.1,2.9,-23,-20,-0.6,4.6,i
CC(C)c1ccc(C(=O)OC2CCOC2=O)cc1 (stereo not given),0.69,nt,-6,0.5,1.2,0,7,-3.4,-1.8,i
CCOC(=O)c1ccc(NC(=O)N2CCN(CCc3ccccc3)CC2)cc1,0.62,12,0,1.0,nt,nt,nt,nt,0.7,nt
CCc1ccc(S(=O)(=O)ON2C(=O)c3ccccc3C2=O)cc1,0.64,15,nt,nt,-1.5,17,15,-0.2,-5.4,i
